Screening data deposited in PubChem by several laboratories.
Beta cell apopt – blocks beta cell apoptosis; INS-1E cytokine-induced death, ATP luminescence, 48 h; percent of positive-control rescue, neutral wells zero; AID 435005; protection from apoptosis, % (test concentration not listed); actives 0.8% (n = 300,000);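 active = all replicates at 75% or more, or half of them and the mean; inconclusive = half reach 75% but not the mean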;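 also: 0% = cytokine-treated negative control wells and 100% = positive control rescue; higher means more ATP so stronger rescue from cytokine killing; wells of about 40 µL received 100 nL stock; the first replicate is given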
FGF22 binding – binders of recombinant human FGF22 by thermal shift. Q9HCT0. SYPRO orange fluorescence; percent of sucrose octasulfate shift, DMSO zero. calls only at 9.99 µM. actives 1.5% (n = 340,000);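 active = melting point raised past a set limit in the mean and every replicate; inconclusive = no clear call; three in four hits are not shown here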
Target sequence (Q9HCT0 whole entry, looked up): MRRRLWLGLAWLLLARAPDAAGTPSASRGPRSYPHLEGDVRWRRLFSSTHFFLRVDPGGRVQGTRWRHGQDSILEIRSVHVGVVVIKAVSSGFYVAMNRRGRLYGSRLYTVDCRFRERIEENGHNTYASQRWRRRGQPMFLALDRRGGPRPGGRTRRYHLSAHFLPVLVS
UCH37 inh – human UCH37 deubiquitinating enzyme inhibition; AID 588478; Q9Y5K5; purified proteasome/UCH37, Ub-AMC cleavage fluorescence; inhibition, % (test concentration not listed); actives 0.33% (n = 330,000);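 active = mean of two replicates above 20%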;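 also: 0% = compound-free wells with enzyme and 100% = wells lacking proteasome; stock transfer was 100 nL into about 20 µL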
Target sequence (Q9Y5K5 whole entry, looked up): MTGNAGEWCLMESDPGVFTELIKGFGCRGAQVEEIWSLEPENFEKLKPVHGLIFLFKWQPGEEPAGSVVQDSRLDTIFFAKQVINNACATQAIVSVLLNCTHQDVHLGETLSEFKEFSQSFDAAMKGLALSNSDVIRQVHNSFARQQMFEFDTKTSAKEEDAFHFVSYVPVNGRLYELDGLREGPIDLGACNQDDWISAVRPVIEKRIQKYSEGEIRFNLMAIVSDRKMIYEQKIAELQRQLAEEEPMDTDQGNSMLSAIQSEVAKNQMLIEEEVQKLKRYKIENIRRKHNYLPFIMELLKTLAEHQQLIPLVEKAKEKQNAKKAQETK
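System: Proteasome-associated human UCH37 deubiquitinase; Input: 0.15 nM proteasome in added enzyme buffer; Also added: Ub-AMC substrate from 1 µM stock; Incubation: 30 min compound-proteasome preincubation then 25 min substrate reaction, room temperature; Detection: fluorescence, ex 355 nm, em 460 nm; Read-out: % inhibition of Ub-AMC cleavage fluorescence; Benchmarks: no-proteasome and no-compound wells.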
E coli growth – E. coli growth inhibition | OD600 absorbance (no concentration beside the values) | actives 0.21% (n = 330,000) | Escherichia coli growth, OD600, 23 h; active compounds read low;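 active = OD600 absorbance below the run mean of sample wells minus 3.6 SD, in any replicate, cut at about 0.56 in these data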;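 also: stock transfer was 300 nL into about 60 µL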
T cruzi repl – blocks replication of Trypanosoma cruzi; T. cruzi beta-gal in NIH3T3, luminescence, 90 h; actives 1.4% (n = 300,000); inhibition, % (test concentration not listed); AID 1885;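 active = mean inhibition across valid replicates above about 55%, limit read from the data; inconclusive = mean below that limit but half or more replicates reach it; inactive = mean below it, under half of replicates reach it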;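 also: signal also drops with host cell toxicity which is not excluded here; 0% = plate median of DMSO wells and 100% = zero luminescence signal; higher percent means less beta-gal luminescence so fewer parasites; stock transfer was 50 nL into about 50 µL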
rRNA inh HTS – inhibits bacterial ribosomal RNA function over humanized ribosomes; E. coli WT GFP vs humanized-ribosome RFP mutants, fluorescence, 24 h; active compounds read low; DMSO median 0, no signal -100; GFP signal change (wild-type ribosome), % (no concentration beside the values); actives 1.6% (n = 350,000);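 active = significant combined selectivity score with lowered wild-type GFP, culture density cut under 30%, mutant RFP and density less affected; inactive = any of these conditions unmet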; also: one replicate is shown; some compounds called inactive have numbers as strong as hits
Bfl-1 A1 inh – inhibitors of the anti-apoptotic protein A1, read as caspase activation; caspase activation, % (concentration not given with the values); actives 0.066% (n = 330,000); AID 2462; MEF A1-2A-BIM cells, Caspase-Glo 3/7 luminescence, 3 h; percent of clofoctol response, vehicle zero;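 active = over half of replicate activation scores above 10%, or exactly half above 10 with the replicate mean above 10; inconclusive = replicate mean below 10 yet half the replicates above 10; inactive = over half of replicates below 10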;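 also: wells of about 30 µL received 50 nL stock; many hits fall short of the cut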
MLL AF4-AF9 inh – blocks AF4 peptide binding to human AF9 | AlphaScreen, biotin-AF4 peptide binding to FLAG-AF9 | actives 0.47% (n = 350,000) | inhibition, % at 10 µM;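 active = every replicate reaching a set inhibition limit, whatever the replicate mean, cut at about 25% in these data; inconclusive = mean inhibition reaches that limit but some replicates miss it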;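 also: 0% = plate neutral control median and 100% = total signal loss; the record names both 10 and 1 µM as test concentration; the first replicate is given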
Target sequence (P42568 whole entry, looked up): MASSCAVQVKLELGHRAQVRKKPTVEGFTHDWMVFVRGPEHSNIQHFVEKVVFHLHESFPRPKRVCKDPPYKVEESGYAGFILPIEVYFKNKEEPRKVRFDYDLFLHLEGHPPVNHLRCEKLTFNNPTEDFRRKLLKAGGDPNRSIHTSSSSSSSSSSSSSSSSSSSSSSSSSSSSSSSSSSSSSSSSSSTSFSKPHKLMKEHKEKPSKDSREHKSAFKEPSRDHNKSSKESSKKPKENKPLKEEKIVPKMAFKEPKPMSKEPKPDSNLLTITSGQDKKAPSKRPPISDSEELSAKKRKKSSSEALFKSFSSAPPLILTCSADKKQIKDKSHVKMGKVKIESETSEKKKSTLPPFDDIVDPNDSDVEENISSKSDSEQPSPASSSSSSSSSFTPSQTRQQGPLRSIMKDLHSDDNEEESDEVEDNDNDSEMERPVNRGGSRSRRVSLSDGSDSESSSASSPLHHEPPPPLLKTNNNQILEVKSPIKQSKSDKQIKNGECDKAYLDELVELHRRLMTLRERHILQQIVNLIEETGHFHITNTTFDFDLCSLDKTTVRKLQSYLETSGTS
rRNA inh HTS OD600 – recorded beside rRNA inh HTS, whose call it bears; OD600 change, %; measured here: OD600 growth;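 optical density of the mix in the first replicate; 0 = DMSO median and -100 = no signal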
rRNA inh HTS RFP – recorded beside rRNA inh HTS, whose call it bears; RFP signal change, %; measured here: RFP humanized mutant strains;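 first replicate; 0 = DMSO median and -100 = no signal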
The depositor's hits bear a star; i = inactive; ? = inconclusive; . = no result given. These rows are one share of the data; rates above refer to the full screens.

SMILES	Beta cell apopt	FGF22 binding	UCH37 inh	E coli growth	T cruzi repl	rRNA inh HTS	rRNA inh HTS OD600	rRNA inh HTS RFP	Bfl-1 A1 inh	MLL AF4-AF9 inh
O=C(CC(=O)N/N=C/c1ccc(O)cc1)N/N=C/c1ccc(O)cc1	-3	i	.	.	-5	-4	2	0.6	0.5	-1.9
CN(C)C(/C=C/Nc1ccc(F)cc1)=C(C#N)C#N	.	.	4.1	0.69	-8	.	.	.	1.4	.
S=C(NCCc1ccccc1)N1CCN(C(=S)NCCc2ccccc2)CC1	.	i	0.5	0.71	.	4	-4	1.1	.	-1.0
O=c1cc(O)c2ccccc2n1Cc1ccccc1Cl	-6	i	-5.6	0.69	-11	8	10	0.3	1.1	0.3
COc1ccc(CCNC(=O)c2nc3ncccn3n2)cc1OC	-11	.	-0.9	0.8	-14	.	.	.	-0.3	.
CC1(C)CC(NC(=O)Cc2ccccc2)CC(C)(C)N1	-1	i	3.6	0.69	-11	0	-3	-4.4	1.0	1.3
CCCCCC(=O)N1CC2(C)CN(C(=O)CCCCC)CC(C)(C1)C2=O	1	.	-0.7	0.74	-2	.	.	.	0.9	.
CN(c1ccccc1)S(=O)(=O)c1ccc(NC(=O)c2ccccc2)cc1	6	.	-0.5	0.7	18	.	.	.	-0.7	.
CN(C(=O)c1ccc(NC(=O)Cc2ccc(NC(=O)C3CCN(C(=O)C4CCCCC4)CC3)cc2)cc1)C1CCCC1	.	i	1.4	0.71	.	-1	-10	0.5	.	8.9
OC(CN1CCC(Cc2ccccc2)CC1)C(F)(F)F (stereo not given)	.	i	-2.5	0.67	4	8	13	-1.2	0.3	-3.8
Cc1ccc(N2C(=O)C3C4C=CC(CC4)C3C2=O)cc1Cl (stereo not given)	2	.	0.8	0.71	-8	12	0	-3.3	0.5	2.1
COc1ccc(CCNC(=O)c2ccc3c(c2)SC2=NS(=O)(=O)CCN23)cc1	-6	i	2.1	0.76	-4	3	5	-1.8	0.1	8.6
CC(=O)Nc1ccc(NC(=O)C2CCCN(c3nnc(-n4cccc4)s3)C2)cc1 (stereo not given)	4	.	1.2	0.7	-4	.	.	.	0.9	.
CC1(C)CC2CC(C)(CN2S(=O)(=O)c2ccc(C(=O)Nc3ccc(Cl)c(S(=O)(=O)N4CCOCC4)c3)cc2)C1 (stereo not given)	2	.	2.1	0.67	63*	.	.	.	0.6	.
Cc1nn(-c2ccccc2)c(C)c1C(=O)N1CCN(S(=O)(=O)c2ccccc2)CC1	-1	i	0.7	0.7	.	-3	2	-1.4	0.9	-4.2
CCOC(=O)C1C(C(=O)NN)C1C(=O)Nc1ccccc1 (stereo not given)	0	i	0.6	0.67	-10	13	11	-1.7	0.2	-0.4
Cc1ccc(Nc2nc(-c3ccc(S(=O)(=O)N4CCOCC4)cc3)cs2)cc1	-2	.	-31	0.77	17	.	.	.	-0.8	.
COc1ccc(N2C(=O)CSC2c2ccncc2)cc1 (stereo not given)	-1	.	3.0	0.67	-12	.	.	.	0.1	.
O=C(NCCc1ccco1)C(=O)NCC1CCCN1S(=O)(=O)c1ccccc1 (stereo not given)	8	i	0.0	0.66	2	6	12	3.6	0.3	-3.9
CC(C)[C@H](NC(=O)N1CCn2c1nc1ccccc12)C(=O)NCc1ccco1	-1	i	0.8	0.72	-7	1	4	-0.3	0.3	1.9
Cc1ccc(/C=C2\SC(=S)N(CCC(=O)Nc3ccc(O)cc3)C2=O)cc1	-1	i	-0.2	0.7	-7	10	24	-1.5	-0.7	1.0
CC1CN(C(=O)C2CCCCC2)C(C)CN1C(=O)C1CCCCC1 (stereo not given)	-3	.	4.7	0.66	-1	.	.	.	0.1	.
CC(OC(=O)c1cc2ccccc2cc1O)C(=O)Nc1ccc(S(N)(=O)=O)cc1 (stereo not given)	-1	i	-3.3	0.65	-9	-1	1	11	-0.7	-13
CSc1ncccc1C(=O)N(C)CC(=O)Nc1ccc(Cl)cc1	-1	i	.	.	-18	-2	1	-1.9	-0.2	-8.7
CCN(CC(=O)Nc1ccc(NC(C)=O)cc1)C(=O)CN1C(=O)NC2(CCCC2)C1=O	-5	i	-1.1	0.71	-7	13	17	0.4	-0.1	-25
CCOC(=O)C1CCN(C(=O)COC(=O)/C=C/c2cccc(OC)c2OC)CC1	0	i	-2.5	0.71	.	0	-21	4.2	0.7	2.5
CCOC(=O)CSc1nnc(-c2ccc(NS(=O)(=O)c3ccc(C)cc3)cc2)o1	-23	.	2.7	0.62	-7	.	.	.	-0.7	.
COc1cccc(CN2CCN(S(=O)(=O)c3ccc(Br)cc3)CC2)c1	-3	i	2.8	0.7	2	-6	-14	-0.7	-0.7	0.1
COc1ccc(-c2cc(C(F)(F)F)nc(N3CCCCC3)n2)cc1OC	19	.	-58	0.74	-2	.	.	.	-0.6	.
O=C(CSc1n[nH]c(-c2ccncc2)n1)NC1CCS(=O)(=O)C1 (stereo not given)	-2	.	-44	0.73	-14	.	.	.	0.5	.
COc1ccccc1OC(=O)c1cc(Cl)nc2ccccc12	-3	.	2.7	0.71	-12	.	.	.	0.4	.
Cc1cc(OC(=O)c2ccc(S(=O)(=O)N3CCOCC3)cc2)c([N+](=O)[O-])c(=O)[nH]1	.	i	7.6	0.69	.	2	8	0.1	.	-2.3
COc1cc2ccccc2cc1C(=O)Nc1ccc(Cc2ccncc2)cc1	32	.	1.2	0.71	62*	.	.	.	0.3	.
COC(=O)CCSCc1cn2cc(Cl)ccc2n1	1	.	0.3	0.75	-8	.	.	.	0.1	.
CN(CC(=O)Nc1cccc(F)c1)C(=O)c1cc(-c2ccco2)nc2ccccc12	-7	i	-419	0.65	-2	2	11	3.9	-0.2	2.2
O=c1c2cc(F)ccc2sn1-c1ccccc1	29	i	4.3	0.64	.	-24	-38	-23	-12	-20
Cc1noc(C)c1COc1ncnc2ccccc12	0	i	1.2	0.65	-14	10	11	-2.5	-1.1	-0.3
COc1ccc(C(=O)Nc2cccc(-c3nc4ncccc4o3)c2C)cc1OC	0	.	1.1	0.75	-17	.	.	.	0.0	.
O=C(C1COc2ccccc2O1)N1CCN(c2ccccc2)CC1 (stereo not given)	-11	.	0.9	0.74	-13	.	.	.	-0.4	.
CCN1C(=O)C(CC(=O)Nc2cc(C)ccc2C)SC1=Nc1ccc(S(N)(=O)=O)cc1 (stereo not given)	1	.	3.9	0.65	7	.	.	.	0.5	.
O=C(NCc1ccccc1)c1ccc(N2CCC3(CC2)CC(c2ccc(Cl)cc2)=NO3)c([N+](=O)[O-])c1	37	i	-1.5	0.83	46	2	16	8.2	-0.2	-9.4
COC(=O)CNC(=O)c1c(-c2c(Cl)cccc2Cl)noc1C	-2	i	6.7	0.66	-11	9	8	-4.0	1.2	-4.9
COc1oc(-c2ccccc2C)nc1C(F)(F)F	17	.	0.9	0.71	27	.	.	.	1.9	.
NC(=O)c1oc2ccccc2c1NC(=O)C1CCCCC1	-3	i	3.1	0.74	-18	0	5	2.3	1.3	-5.2
Cc1ccc(NC(=O)CSc2ncn[nH]2)cc1	-3	i	1.3	0.67	-9	10	1	-1.0	0.1	-2.3
CCN(Cc1ccncc1)C(=O)c1ccc(C)c(S(=O)(=O)N2CCCCC2)c1	1	i	3.2	0.7	.	6	5	-0.4	0.8	3.2
N#Cc1ccc(-c2cccs2)nc1SCc1cccnc1	5	i	-25	0.68	6	9	6	3.2	-0.2	4.3
O=C(CCn1c2c(c3ccccc31)CCCC2)NNC(=O)c1ccccc1[N+](=O)[O-]	1	.	0.0	0.75	-1	.	.	.	0.1	.
CCc1cccc(CC)c1NC(=O)c1cccc(N)c1	-3	.	-7.6	0.73	4	.	.	.	0.7	.
CC1SCC(=O)N(CC(=O)Nc2ccc3c(c2)OCCO3)C1=O (stereo not given)	-21	i	-1.9	0.73	-10	3	1	-8.4	-0.3	-0.8
COCCCNc1nc(-c2ccncc2)nc2ccccc12	-5	.	-0.7	0.78	17	.	.	.	-0.6	.
CC(C)(C)c1ccc(NC(=O)NC2CCCc3ccccc32)cc1 (stereo not given)	21	.	4.1	0.68	-4	11	-3	3.0	0.1	-1.2
CN(CCO)c1c2c(nc3cc(-c4cccc(F)c4)nn13)CCCC2	-2	.	-9.5	0.7	20	.	.	.	-0.6	.
CCn1c(=O)c(C(=O)CN2CCN(Cc3ccc4c(c3)OCO4)CC2)c(N)n(Cc2ccccc2)c1=O	4	i	1.7	0.68	33	3	-3	0.2	0.2	4.0
CCc1ccc(CN(C)CC(=O)Nc2ccc(S(=O)(=O)N3CCOCC3)cc2)cc1	1	i	-0.5	0.65	.	-6	-23	3.5	1.6	-11
O=C(CSc1ccc(-c2ccco2)nn1)N1CCCCC1	-5	i	-2.8	0.71	5	-3	10	1.1	-1.5	-7.2
CC1CCCN(c2ccc(C(=O)NCc3ccc4c(c3)OCO4)cc2[N+](=O)[O-])C1 (stereo not given)	6	.	2.4	0.73	38	.	.	.	0.9	.
OC1CN=C2C=CC=CN2C1 (stereo not given)	-1	.	-9.1	0.79	-18	.	.	.	0.7	.
CCOc1ccc(NC(=O)C2CCN(C(=O)NC3CCCCC3)CC2)cc1	.	.	3.2	0.72	7	.	.	.	0.0	.
O=C(c1cccc(C(F)(F)F)c1)N1CCC2(CC1)NCCc1[nH]cnc12	-4	i	2.5	0.75	1	11	6	5.0	-1.4	2.7
Later entries
SMILES	Beta cell apopt	FGF22 binding	UCH37 inh	E coli growth	T cruzi repl	rRNA inh HTS	rRNA inh HTS OD600	rRNA inh HTS RFP	Bfl-1 A1 inh	MLL AF4-AF9 inh
COc1ccc2cc1Oc1ccc(cc1)C[C@H]1c3cc(c(OC)cc3CCN1C)Oc1c(OC)c(OC)cc3c1[C@H](C2)N(C)CC3	5	i	1.1	.	48	.	.	.	1.2	?
CN(Cc1cn[nH]c1-c1ccc(-c2ccccc2)cc1)CC1CCOCC1	-6	i	1.1	0.67	-15	8	9	-2.7	-0.2	-0.3
Fc1cccc(Cl)c1/C=N/Nc1c(Cl)cncc1Cl	-9	i	.	.	0	2	2	-2.5	0.6	-4.3
CCOc1ccc(S(=O)(=O)Nc2ccc3c(c2)n(C)c(=O)n3C)cc1	12	i	1.5	0.68	-14	7	-10	11	0.2	2.0
O=C(CSc1nc2ccccc2s1)N/N=C/c1ccc(C(=O)O)cc1	-6	i	.	.	.	10	7	-5.1	-0.3	-0.7
CC1=C(C(=O)NC2CCCCC2C)C2(CCC(C)CC2)OC1=O (stereo not given)	-2	i	0.7	0.79	-11	5	-34	-4.7	-0.2	?
CCOc1ccccc1CNCCOC	-7	i	-1.4	0.71	-10	15	12	0.7	0.1	-0.5

Three compounds from above, arranged by the value under rRNA inh HTS, highest first:
compound | rRNA inh HTS
O=C(CSc1nc2ccccc2s1)N/N=C/c1ccc(C(=O)O)cc1 | 10
CCOc1ccc(S(=O)(=O)Nc2ccc3c(c2)n(C)c(=O)n3C)cc1 | 7
CC1=C(C(=O)NC2CCCCC2C)C2(CCC(C)CC2)OC1=O (stereo not given) | 5
